Cruzain Triton – qHTS Assay for Promiscuous and Specific Inhibitors of Cruzain (with detergent); 0.43% of 200,000 active; Cruzipain (Trypanosoma cruzi), P25779; purified cruzain, Z-FR-AMC fluorescence, 0.01% Triton; Potency, µM, for the others: max response, negative = inhibition, most hits filed as inhibitors;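 also: plate controls were neutral wells for no effect and buffer without enzyme for full effect; nearly all actives have a fitted effect of over 40% in size; top concentration of the series not given in the record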
Target sequence (P25779 123-467 limits assumed): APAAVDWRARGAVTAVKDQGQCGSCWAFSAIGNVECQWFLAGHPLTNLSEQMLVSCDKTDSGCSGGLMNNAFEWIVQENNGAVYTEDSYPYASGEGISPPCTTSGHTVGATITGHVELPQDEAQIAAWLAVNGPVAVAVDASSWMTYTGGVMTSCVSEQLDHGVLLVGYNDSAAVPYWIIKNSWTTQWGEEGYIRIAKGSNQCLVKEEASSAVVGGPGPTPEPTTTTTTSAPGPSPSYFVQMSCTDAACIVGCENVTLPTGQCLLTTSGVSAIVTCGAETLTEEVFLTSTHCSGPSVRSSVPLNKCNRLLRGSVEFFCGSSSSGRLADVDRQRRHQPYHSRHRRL
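Detergent-containing run (0.01% Triton X-100) in acetate buffer pH 5.5 with 5 mM DTT: enzyme at 1.5 nM final, 15 min compound preincubation at room temperature, then 2 uM Z-FR-AMC substrate. Activity taken as 60 s fluorescence increase at 360/450 nm.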
Cruzain inh noDet – qHTS Assay for Promiscuous and Specific Inhibitors of Cruzain (without detergent); Cruzipain (Trypanosoma cruzi), P25779; purified cruzain, Z-FR-AMC fluorescence, no detergent; Potency, µM, for inactives: max response, negative = inhibition, actives largely listed as inhibitors; 2.3% of 200,000 active; AID 1476, 2009;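 also: plate controls were enzyme without inhibitor for no effect and buffer without enzyme for full effect; nearly all actives have a fitted effect of over 40% in size; top concentration of the series not given in the record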
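Purified cruzain at 1.5 nM, pre-incubated 15 min with compound at room temperature in 100 mM sodium acetate pH 5.5, 5 mM DTT, 0.00005% Triton X-100. Reaction started with 2 uM Z-FR-AMC; AMC fluorescence increase over 60 s gives rate.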
LASV entry inh – qHTS for Inhibitors of binding or entry into cells for Lassa Virus; Lassa virus pseudotype entry inhibition, cell reporter; control for the full effect not named in the record; AID 540256, 2011; Potency, µM (top dose mostly 37.9 µM), inactives show at the top dose activity change, negative = inhibition, hits mostly inhibitors; 1.2% of 300,000 active; active means well fitted inhibition curve with a large enough effect; inconclusive means small, poorly fitted or top-dose-only effect, or effect the other way; inactive means flat fitted curve, though single readings scatter; tested in HEK293 cells; also: % is scaled to controls: 0 for no effect and ±100 for the full control effect; nearly all actives have a fitted effect of over 50% in size; luciferase read-out
2A StopGo – High Throughput Screening for Foot and Mouth Disease Virus Antivirals; human cells with a luciferase reporter of 2A StopGo recoding; control for the full effect not named in the record; Potency, µM (top dose mostly 57.9 µM), for inactives: at the highest dose signal change, negative = less light; 1.2% of 410,000 active; active = well fitted falling curve with a large enough effect; inconclusive = small, poorly fitted or top-dose-only effect; inactive = no such curve, though single readings can be large or run the other way; tested in HEK293T cells; also: % is scaled to controls: 0 for no effect and ±100 for the full control effect; nearly all actives have a fitted effect of over 45% in size; luciferase light after 4 h
MARV entry inh – qHTS for inhibitors of binding or entry into cells for Marburg Virus | Marburg virus pseudotyped entry inhibition, cell reporter; control for the full effect not named in the record; about a third of the inactives were read at about 46 µM | Potency, µM (highest dose often 37.8 µM), for inactives: at the highest dose activity change, negative = inhibition, most hits filed as inhibitors | 1.8% of 300,000 active | AID 540276, 2011; active = well fitted inhibition curve with a large enough effect; inconclusive = small, poorly fitted or top-dose-only effect, or effect the other way; inactive = flat fitted curve, though single readings scatter; tested in HEK293 cells; about a fifth of its hits are not listed in these tables; also: % is scaled to controls: 0 for no effect and ±100 for the full control effect; luciferase read-out
RE007 growth inh – qHTS Assay for Inhibitors of the HIV-1 protein Vpr; S. pombe RE007 Vpr strain, BacTiter-Glo ATP luminescence, 24 h; control for the full effect not named in the record; 0.21% of 360,000 active; AID 651644, 2012; Potency, µM (titrated, usually from 92.2 µM), inactives show at the top dose activity change, negative = less growth; active = well fitted falling curve with a large enough effect; inconclusive = small, poorly fitted or top-dose-only effect; inactive = no such curve, though single readings can be large or run the other way;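 also: % is scaled to controls: 0 for no effect and ±100 for the full control effect; nearly all actives have a fitted effect of over 50% in size; the assay follows cell death caused by Vpr and the record does not say whether a fall means rescue or toxicity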
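Fission yeast strain RE007, carrying one chromosomally integrated HIV-1 vpr copy, was seeded at OD 0.01 in PMG+AL medium with 23 nL pinned compound. After 24 h at 30 °C and 99% humidity, viability was read by BacTiter-Glo luminescence.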
NS1 inh – qHTS Assay for Inhibitors of Influenza NS1 Protein Function. S. cerevisiae slowed by influenza A NS1, growth recovery by OD600. Potency, µM (titrated, usually from 46.1 µM), for inactives: at the top dose activity, positive = more growth. 0.4% of 270,000 active; active means well fitted rising curve with a large enough effect; inconclusive means small, poorly fitted or top-dose-only effect; inactive means no such curve, though single readings can be large or run the other way; also: nearly all actives have a fitted effect of over 50% in size
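OD600 was taken as the measure of yeast growth restored by compound in an NS1-expressing S. cerevisiae strain. Cells had been washed out of glucose medium and diluted 1:100 into galactose -URA medium, pH 6.0.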
SARS PLP yeast – qHTS of Yeast-based Assay for SARS-CoV PLP; 0.19% of 330,000 active; AID 485353, 2010; S. cerevisiae expressing SARS-CoV PLpro, growth rescue; control for the full effect not named in the record; Potency, µM (doses to about 32.9 µM), without a hit: at the top dose activity, positive = growth rescue; active means well fitted rising curve with a large enough effect; inconclusive means small, poorly fitted or top-dose-only effect; inactive means no such curve, though single readings can be large or run the other way; also: 0% is about no effect; nearly all actives have a fitted effect of over 55% in size; growth read by luminescence after 48 h
An asterisk follows results filed as active; u = inconclusive; x = no result given; & = joins results of further samples; [ ] = dose if it differs, or a comment. Unless noted, calls follow the shape of the dose curve; as a rule, active = well fitted curve in the direction sought with a large enough effect; inconclusive = small, poorly fitted or top-dose-only effect, or another doubt; inactive = no such curve, though single readings can be large; an effect the other way counts as inactive or inconclusive. Potency is read from the fitted curve at half-maximal effect.

Each structure is followed by: Cruzain Triton	Cruzain inh noDet	LASV entry inh	2A StopGo	MARV entry inh	RE007 growth inh	NS1 inh	SARS PLP yeast
COc1ccc2c(C)cc(SCC(=O)Nc3nsc(-c4ccc(C(C)(C)C)cc4)n3)nc2c1
→ -2.0%	u	21%[46.1 µM]	20%	u	x	x	x
CCOC(=O)c1[nH]c2cc3c(cc2c1CCCN1C(=O)c2ccccc2C1=O)OCCO3
→ -4.0%	-3%	-2%	-17%	11%	-8%	-8%	9%
COc1cc2cc(C)c3nnc(SCC(N)=O)n3c2cc1OC
→ 1.0%	5%	x	x	-3%	x	-3%	0%
CCN(C(=O)c1ccc2c(Cl)c3c(nc2c1)CCC3)c1ccc(C)c(C)c1
→ -4.1%	u	-22%	u	u	-7%	u	-16%
O=C(CC1SC2=NCCN2C1=O)Nc1ccc(Cl)cc1 (stereo not drawn)
→ 0.5%	3%	0%	6%	1%	-6%	u	-4%
COc1ccc(CC(=O)OCC(=O)Nc2ccc(C(=O)Nc3ccc(OC)cc3)cc2)cc1
→ x	x	4%	23%	3%	-6%	8%	-1%
COc1ccccc1CC1CC(=O)N(c2cccc(Cl)c2C)C1=O (stereo not drawn)
→ x	x	x	15%	x	-23%	9%	-3%
CCCSc1nc2c(cnn2-c2ccc(C)cc2)c(=O)[nH]1
→ 1.1%	u	3%	-13%	3%	-13%	-11%	1%
Cc1ccc(S(=O)(=O)Nc2nc3ccccc3nc2NCC2CCCO2)c(C)c1 (stereo not drawn)
→ x	x	-5%	23%	8%	6%	-7%	-1%
CCN1CCN(CCn2c(=S)[nH]c3ccccc3c2=O)CC1
→ 1.2%	-5%	6%	12%	-4%	2%	4%	7%
C=CCCC1(CC)C(=O)NC(=S)NC1=O
→ x	x	15%	0%	1%	10%	x	x
Cc1cccc(NS(=O)(=O)Cc2ccccc2)n1
→ -6.0%	-11%	-1%	-1%	-3%	-6%	7%	8%
O=C(CN1N=C(c2ccccc2)CCC1=O)NCCCN1CCc2ccccc2C1
→ -2.1%	-10%	19%	-11%	12%	0%	15%	13%
COc1ccc(CNS(=O)(=O)c2cc(-c3cc(C)no3)ccc2OC)cc1OC
→ x	x	x	21%	x	0%	-5%	-3%
CC(=O)N1CCN(c2ccc(NC(=O)c3ccco3)cc2Cl)CC1
→ x	x	-4%	6%	15%	24%	-4%	u
Cc1cccc(NC(=O)C2COc3ccccc3O2)c1 (stereo not drawn)
→ x	x	x	60%[activator]	x	-28%	-5%	-3%
C#Cc1ccc([C@H]2C=C(C(=O)N3CCN(Cc4ccccc4)CC3)O[C@@H](OCC)[C@@H]2CCCO)cc1
→ x	x	x	-11%	x	-1%	-13%	0%
COc1ccc(CNS(=O)(=O)c2ccc3c(c2)NC(=O)C(C)C(=O)N3)cc1 (stereo not drawn)
→ -7.4%	u	u	-9%	3%[46.1 µM]	x	x	x
CCOC(=O)N1CCN(c2nc(-c3ccccc3)c3ccccc3n2)CC1
→ x	x	21%[46.1 µM]	0%	15%[46.1 µM]	2%	-1%	-1%
CCC(C)NS(=O)(=O)c1ccc(OCC(=O)NCc2ccc(OC)cc2)cc1 (stereo not drawn)
→ x	x	-7%[46.1 µM]	-19%	u	14%	3%	3%

The results go on:
Each structure is followed by: Cruzain Triton	Cruzain inh noDet	LASV entry inh	2A StopGo	MARV entry inh	RE007 growth inh	NS1 inh	SARS PLP yeast
COc1cccc(N2CCN(CC(=O)Nc3nc(C)c(C(=O)N(C)C)s3)CC2)c1
→ x	x	6%[46.1 µM]	-1%	u	2%	11%	-5%
CCc1cccc(NC(=O)CN(c2ccc(OC)cc2)S(=O)(=O)c2c(C)n[nH]c2C)c1
→ -1.4%	u	-22%	-15%	u	8%[3.69 µM]	-1%	-2%
CCOC(=O)c1ccc(NC(=O)c2ccc(NC(=O)C3CCCO3)cc2)cc1 (stereo not drawn)
→ x	x	-16%[46.1 µM]	u	u	-6%	-1%	-3%
O=C(N/N=C/c1cc(Br)c(O)c(Br)c1O)c1cccnc1
→ x	x	x	-3%	x	-10%	8%	5%
COc1ccc(OC)c2c1cc(C(=O)N[C@@H](Cc1ccccc1)C(=O)O)n2C
→ x	x	24%[46.1 µM]	-15%	0%[46.1 µM]	-8%	5%	2%
CC(C)[C@@H](C(=O)NC1CCN(Cc2ccccc2)CC1)N1C(=O)N2CCc3c([nH]c4ccccc34)[C@@]2(C)C1=O
→ x	x	x	-28%	x	-12%	5%	7%
CCOc1ccc(NC(=O)CCNC(=O)Cn2cnc3ccccc3c2=O)cc1
→ x	x	-17%[46.1 µM]	6%	6%[46.1 µM]	0%	10%	-1%
CC(C)OC(=O)c1ccc(N2C(=O)C3CC=CCC3C2=O)cc1 (stereo not drawn)
→ 1.9%	-1%	7%	37%[activator]	-5%	6%	-8%[9.22 µM]	-4%
COc1ccc2c(ccn2S(=O)(=O)c2ccccc2)c1
→ x	x	x	0%	x	-7%	11%	-2%
CC1CC2(NC(=O)NC2=O)C(C)CN1C (stereo not drawn)
→ -0.2%	-7%	-9%	-18%	-1%	-14%	7%	-17%
Cc1nn(-c2ccccc2)c2c1CC1(C(=O)N(C)C(=O)N(C)C1=O)C1CCCCN21 (stereo not drawn)
→ 1.8%	15%	1%	2%	u	-15%	-11%	-6%
O=[N+]([O-])c1ccc(N=Cc2c(O)ccc3ccccc23)cc1
→ x	x	x	0%	x	11%	-2%	2%
Cc1cccc(NC(=O)NCCn2c(=O)oc3ccc(C)cc32)c1
→ 0.3%	-4%	-18%[46.1 µM]	-2%	2%[46.1 µM]	x	x	x
CC(NC(=O)CCCC1=NS(=O)(=O)c2ccccc2N1)c1ccccc1 (stereo not drawn)
→ 2.8%	5%	24%[46.1 µM]	0%	x	x	x	x
O=C1N=C(N2CCc3ccccc3C2)S/C1=C\c1ccc(O)cc1
→ x	x	u	2%	0%[46.1 µM]	5%	-5%	-3%
Clc1ccc(CCNc2ncnc3nc[nH]c23)cc1
→ 0.4%	-1%	-3%	u	u	-11%	-10%	-1%
N#CCCN(C(=O)COc1ccc(Cl)cc1Cl)c1ccccc1
→ -5.3%	-8%	-8%	10%	21%	-10%	-3%	8%
Cc1cc(C)c(NC(=O)CNC(=O)c2cc([N+](=O)[O-])ccc2N2CCOCC2)c(C)c1
→ x	x	u	-13%	u	7%	x	-4%
C/C(=N\NC(=O)c1ccncc1)C12CC3CC(CC(C3)C1)C2
→ 9.2%	-3%	-5%	-11%	6%	17%	9%	-2%
CC1=CC(C)(C)N2C(=O)C3(C(C#N)=C(N)OC4=C3C(=O)CC(C)(C)C4)c3c(C)c(C)cc1c32 (stereo not drawn)
→ -5.1%	u	-2%	u	u	-1%	-8%	u

(listing goes on)
Each structure is followed by: Cruzain Triton	Cruzain inh noDet	LASV entry inh	2A StopGo	MARV entry inh	RE007 growth inh	NS1 inh	SARS PLP yeast
Cc1c(NC(=O)CSc2nc3ccccc3n2C)c(=O)n(-c2ccccc2)n1C
→ -1.0%	0%	-1%	5%	12%	26%	1%	13%
CC(=O)Nc1cccc(NC(=O)Cc2nc(-c3ccccc3)sc2-c2ccc(C)cc2)c1
→ -8.3%	-10%	u	16%	u	-2%	u	-2%
CN1CCN(c2ccccc2NC(=O)COc2ccc(Cl)cc2)CC1
→ x	x	25%	-27%	21%	-9%	0%	28%
CCN1CCN(Cc2c(O)c(Cl)cc3c(C)cc(=O)oc23)CC1
→ u	u	20%	17%	2%	12%	4%	-10%
O=C(CSc1ccccc1)N/N=C/c1ccccc1O
→ x	x	u	25%	u	14%	-5%	3%
COc1ccc(CNS(=O)(=O)c2ccc3c(c2)NC(=O)CS3)cc1
→ x	x	x	-10%	x	0%	2%	-11%
COc1ccc(Nc2ncnc3c2cnn3-c2ccccc2)cc1OC
→ -1.1%	5%	6%	10%	-11%	2%	-6%	2%
COc1ccc2[nH]c3c(c2c1)CCN1C(=O)N([C@@H](C)C(=O)NCc2ccc(C)cc2)C(=O)[C@]31C
→ x	x	x	-26%	x	-8%	19%	5%
CC(=O)c1sc(NC(=O)CCOc2ccccc2)nc1C
→ x	x	x	38%[activator]	x	7%	0%	1%
O=c1ccnc(Nc2ccc3c(c2)OCCO3)[nH]1
→ x	x	-27%[46.1 µM]	-12%	-8%[46.1 µM]	6%	x	-3%
Cc1cc2ncn(C3CC(=O)N(Cc4ccccc4)C3=O)c2cc1C (stereo not drawn)
→ -0.3%	3%	-5%	x	15%	-9%	-31%	-9%
O=C(Nc1ccc(N2CCOCC2)c(Cl)c1)c1cccc(F)c1
→ -2.6%	-13%	u	-40%	-7%	-3%	-31%	-15%
COCCNC(=O)CSc1nc(-c2ccccc2)cs1
→ 2.8%	-6%	-1%	65%[activator]	24%	-6%	-5%	-9%
Cn1c(NCc2ccco2)nc2c1c(=O)n(Cc1ccc(Br)cc1)c(=O)n2C
→ -4.3%	13%	6%	u	-22%	4%	-50%	0%
CCCCc1nc2ccccc2c(=O)n1NC(=O)c1c(O)c2c(n(CC(C)C)c1=O)CCCC2
→ -5.5%	u	20%	-25%	16%&-6%	1%	-102%	u
COC(=O)c1ccc(NS(=O)(=O)c2c(C)nc3sccn3c2=O)cc1
→ -3.7%	18%	-17%[46.1 µM]	9%	x	x	x	x
CCOC(=O)c1cc(C)sc1NC(=O)c1ccc(Cl)s1
→ 0.3%	7%	-3%	11%	-3%[46.1 µM]	11%	6%	1%
CC(C)(Oc1ccc(Cl)cc1)C(=O)Nc1nnc2n1CCS2
→ 0.5%	-9%	2%[46.1 µM]	0%	x	x	x	x
CCC(CC)C(=O)Nc1cccc(-c2cn3cccnc3n2)c1
→ -0.4%	-3%	0%[46.1 µM]	0%	x	x	x	x

Bioassay records from PubChem.
